# Ecoli rRNA inh: reduced GFP signal of wild-type E. coli, primary screen, bacterial rRNA inhibitor project, GFP/RFP fluorescence, OD600, single point; E. coli WT GFP vs humanized-ribosome RFP mutants, 24 h; stronger effect = lower value; DMSO median 0, no signal -100; GFP signal change (wild-type ribosome), % (concentration not given with the values); 1.6% of 350,000 active;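 active = significant combined selectivity score with lowered wild-type GFP, culture density cut under 30%, mutant RFP and density less affected; inactive = any of these conditions unmet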; note: one replicate is shown; some compounds called inactive have numbers as strong as hits
# FGF22 binding: binders of human FGF22 protein, primary screen, FGF22 synaptogenesis inhibitor project, biophysical, thermal shift, single point; calls only at 9.99 µM; recombinant FGF22 thermal shift, SYPRO orange fluorescence; percent of sucrose octasulfate shift, DMSO zero; 1.5% of 340,000 active;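 active = melting point raised past a set limit in the mean and every replicate; three in four hits are not shown here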
# Target sequence (Q9HCT0 whole entry, looked up): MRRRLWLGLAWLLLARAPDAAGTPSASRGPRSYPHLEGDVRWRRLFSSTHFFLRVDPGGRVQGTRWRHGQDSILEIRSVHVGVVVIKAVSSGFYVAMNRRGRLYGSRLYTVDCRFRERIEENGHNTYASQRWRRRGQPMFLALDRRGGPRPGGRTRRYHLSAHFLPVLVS
# Ecoli rRNA inh OD600: second read-out of Ecoli rRNA inh, no call of its own (marks repeat the call); OD600 change, %; measured here: OD600 growth;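 optical density of the mix in the first replicate; 0 = DMSO median and -100 = no signal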
# Ecoli rRNA inh RFP: recorded beside Ecoli rRNA inh, whose call it bears; RFP signal change, %; measured here: RFP humanized mutant strains;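 first replicate; 0 = DMSO median and -100 = no signal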
# The depositor's hits bear a star; i = inactive; x = not tested or not shown; + = active, no number.
Ecoli rRNA inh	FGF22 binding	Ecoli rRNA inh RFP	Ecoli rRNA inh OD600	Compound
1.3	i	0.8	2.1	C[C@H]1CN([C@@H](C)CO)C(=O)c2cc(C#Cc3cccc(F)c3)cnc2O[C@@H]1CN(C)C(=O)C1CC1
-2.1	i	-0.3	-0.8	Cc1noc(C)c1S(=O)(=O)N(C)C[C@@H]1Oc2c(NC(=O)c3cnccn3)cccc2C(=O)N([C@H](C)CO)C[C@@H]1C
0.5	i	0.4	2.6	CN1C(=O)c2cc(NC(=O)c3ccno3)ccc2OC[C@H]2O[C@@H](CC(=O)NC3Cc4ccccc4C3)CC[C@@H]21
-2.8	i	0.5	-4.2	C[C@@H]1CCCCO[C@H](CN(C)C(=O)Nc2ccc(F)cc2)[C@H](C)CN([C@@H](C)CO)C(=O)c2cc(NS(C)(=O)=O)ccc2O1
1.0	i	-3.7	7.5	O=C(C[C@H]1CC[C@@H]2NC[C@H](O)COC[C@H]2O1)NCc1ccc2c(c1)OCO2
-7.3	i	2.8	-11.4	Cc1ccccc1S(=O)(=O)N[C@@H]1CC[C@@H](CCNS(=O)(=O)c2cccc(F)c2)O[C@H]1CO
1.3	i	-2.0	-2.8	COc1ccc(NC(=O)N(C)C[C@@H]2Oc3cc(-c4cccc(C(=O)N(C)C)c4)ccc3S(=O)(=O)N([C@@H](C)CO)C[C@H]2C)cc1
2.0	i	1.5	2.0	Cc1ccc(S(=O)(=O)Nc2ccc3c(c2)CC(=O)N([C@@H](C)CO)C[C@H](C)[C@H](CN(C)Cc2ccc(Cl)c(Cl)c2)O3)cc1
-46.2	i	5.0	-39.2	NC1(N2SC(S)=C3CCCC=C32)CCCCC1
-6.9	i	-1.5	-21.0	C[C@@H]1CN([C@H](C)CO)S(=O)(=O)c2ccc(-c3ccncc3)cc2O[C@@H]1CN(C)S(=O)(=O)c1ccccc1F
1.6	i	-0.9	2.3	O=C(C[C@H]1CC[C@@H](NC(=O)C2CCC2)[C@@H](CO)O1)Nc1nccs1
0.5	i	2.2	-0.6	COCC#Cc1cnc2c(c1)C(=O)N([C@H](C)CO)C[C@H](C)[C@@H](CN(C)C(=O)Nc1ccc(OC)cc1)O2
-1.0	i	-3.1	-4.5	O=S(=O)(N[C@H]1CC[C@H](CCn2cc(-c3ccccn3)nn2)O[C@H]1CO)c1cccc(F)c1
-0.9	i	-3.6	-7.3	C/C=C/c1ccc2c(c1)O[C@@H](CN(C)C(=O)NC(C)C)[C@H](C)CN([C@H](C)CO)S2(=O)=O
1.1	i	-1.2	4.3	CCCNC(=O)N1[C@@H]2Cn3c(ccc(-c4ccccc4OC)c3=O)[C@H]1[C@@H](C(=O)NCC)[C@@H]2CO

# Filtered by structure, the entries above with an aryl methoxy group
Ecoli rRNA inh	FGF22 binding	Ecoli rRNA inh RFP	Ecoli rRNA inh OD600	Compound
1.3	i	-2.0	-2.8	COc1ccc(NC(=O)N(C)C[C@@H]2Oc3cc(-c4cccc(C(=O)N(C)C)c4)ccc3S(=O)(=O)N([C@@H](C)CO)C[C@H]2C)cc1
0.5	i	2.2	-0.6	COCC#Cc1cnc2c(c1)C(=O)N([C@H](C)CO)C[C@H](C)[C@@H](CN(C)C(=O)Nc1ccc(OC)cc1)O2
1.1	i	-1.2	4.3	CCCNC(=O)N1[C@@H]2Cn3c(ccc(-c4ccccc4OC)c3=O)[C@H]1[C@@H](C(=O)NCC)[C@@H]2CO

# Further records
Ecoli rRNA inh	FGF22 binding	Ecoli rRNA inh RFP	Ecoli rRNA inh OD600	Compound
-0.3	i	-1.3	2.3	COc1ccc(NC(=O)Nc2ccc3c(c2)OC[C@H](C)NC[C@@H](C)[C@H](OC)CN(C)C3=O)cc1
2.1	i	1.9	4.1	CCC(=O)N[C@@H]1CC[C@H](CC(=O)NCC2CCCCC2)O[C@@H]1CO
3.1	i	16.3	-16.3	CCCN(C)C[C@H]1Oc2cc(C#CC3CCCC3)ccc2S(=O)(=O)N([C@@H](C)CO)C[C@H]1C
5.3	i	-2.0	5.4	CCC(=O)N[C@@H]1CC[C@H](CCn2cc(-c3cccc(OC)c3)nn2)O[C@H]1CO
1.5	i	0.5	4.9	CCCC(=O)Nc1ccc2c(c1)OC[C@@H](C)N(C(C)=O)C[C@H](C)[C@@H](OC)CN(C)C2=O
2.1	i	-0.1	-0.5	CS(=O)(=O)N1[C@@H]2Cn3c(ccc(-c4ccc(F)cc4)c3=O)[C@H]1[C@@H](C(=O)NCC1CC1)[C@@H]2CO
-2.1	i	0.0	-2.1	CO[C@@H]1CN(C)C(=O)c2cc(NS(=O)(=O)c3cccc(F)c3)ccc2OC[C@@H](C)N(C(=O)Cc2cccnc2)C[C@@H]1C
-1.3	i	-1.9	0.5	O=C(N[C@@H]1CC[C@@H](CCNS(=O)(=O)c2ccc(Cl)cc2)O[C@H]1CO)c1cnccn1
5.4	i	-2.6	8.1	CCCNC(=O)N1CC2(CCN(C)CC2)c2c([nH]c3cc(OC)ccc23)[C@@H]1CO
2.5	i	-0.6	5.6	C[C@@H]1CN([C@@H](C)CO)C(=O)c2cc(C3=CCCC3)cnc2O[C@H]1CN(C)Cc1ccccn1
0.1	i	-1.5	12.8	COc1ccc2c3c(n(C)c2c1)[C@@H](CO)N(C(=O)c1cnccn1)CC31CCN(C(=O)c2ccncc2)CC1
3.7	i	2.3	-2.0	C[C@H](CO)N1C[C@H](C)[C@H](CN(C)S(C)(=O)=O)Oc2cc(C#Cc3ccccc3)ccc2S1(=O)=O
-1.2	i	2.8	-6.7	Cc1ccccc1-c1cnc2c(c1)C(=O)N([C@H](C)CO)C[C@H](C)[C@H](CN(C)C(=O)c1ccc(F)cc1)O2
4.1	i	1.2	11.1	CNC[C@@H]1Oc2ccc(NC(=O)CCCN(C)C)cc2C(=O)N([C@H](C)CO)C[C@@H]1C
1.9	i	-3.2	7.4	CCC(=O)N(C)C[C@H]1Oc2ncc(-c3ccccc3F)cc2C(=O)N([C@H](C)CO)C[C@H]1C
1.1	i	0.2	7.3	C[C@@H]1CN([C@@H](C)CO)C(=O)Cc2cc(NS(C)(=O)=O)ccc2O[C@@H]1CN(C)Cc1ccc(C(=O)O)cc1
-0.3	i	-2.5	3.2	O=C(Nc1ccc2c(c1)[C@H]1C[C@H](CC(=O)N3CCc4ccccc4C3)O[C@H](CO)[C@H]1O2)C1CCOCC1
-4.8	i	3.7	-10.6	C[C@@H]1CN([C@H](C)CO)C(=O)CCCn2cc(nn2)CO[C@@H]1CN(C)S(=O)(=O)c1ccc(-c2ccccc2)cc1
0.1	i	-2.4	2.2	COc1ccccc1CNC(=O)C[C@H]1CC[C@H](NC(=O)CN(C)C)[C@H](CO)O1
-7.0	i	7.0	-8.3	C[C@@H]1CCCCO[C@H](CN(C)Cc2ccncc2)[C@@H](C)CN([C@@H](C)CO)C(=O)c2cc(NC(=O)Nc3cccc4ccccc34)ccc2O1
3.3	i	-1.7	1.3	C[C@H]1CN([C@@H](C)CO)C(=O)c2cc(C#Cc3ccccc3F)cnc2O[C@H]1CN(C)S(C)(=O)=O
1.8	i	-0.2	-1.2	CN1C(=O)c2cc(NC(=O)Cc3cccs3)ccc2OC[C@H]2O[C@@H](CC(=O)NCCc3ccncc3)CC[C@@H]21
4.2	i	1.1	4.4	O=C(NCC1CCCCC1)[C@H]1[C@H](CO)[C@H]2Cn3c(ccc(-c4cncnc4)c3=O)[C@@H]1N2
1.1	i	0.0	-1.6	CCC(=O)Nc1ccc2c(c1)C(=O)N(C)[C@@H]1CC[C@H](CC(=O)NCC3CCCCC3)O[C@H]1CO2
-2.9	i	-1.1	7.8	COc1ccc(S(=O)(=O)Nc2ccc3c(c2)C(=O)N([C@H](C)CO)C[C@@H](C)[C@H](CN(C)S(=O)(=O)c2ccc(C)cc2)OCCCC[C@H](C)O3)cc1
-1.0	i	1.0	-1.4	CC(=O)NC[C@H]1[C@@H](c2ccc(-c3ccccc3F)cc2)[C@@H](CO)N1C(C)=O
5.9	i	1.1	10.7	Cc1ccc(S(=O)(=O)Nc2ccc3c(c2)C(=O)N([C@H](C)CO)C[C@@H](C)[C@@H](CN(C)CC2CC2)O3)cc1
1.6	i	5.1	5.3	C[C@@H]1CN([C@@H](C)CO)C(=O)Cc2cc(NC(=O)CCCN(C)C)ccc2O[C@H]1CN(C)Cc1ccc(Oc2ccccc2)cc1
-3.2	i	1.1	-3.1	C[C@H](CO)N1C[C@H](C)[C@H](CN(C)Cc2ccncc2)OCCCC[C@H](C)Oc2ccc(NC(=O)C3CCCCC3)cc2C1=O
-41.4	i	-13.6	-82.1	COC(=O)C1=C(C)N(Cc2cccc(C(F)(F)F)c2)C(=NCc2ccc(C(F)(F)F)cc2)NC1c1ccccc1 (stereo not drawn)
0.5	i	-3.8	14.4	C[C@@H]1CN([C@H](C)CO)S(=O)(=O)c2ccc(Br)cc2O[C@@H]1CN(C)Cc1ccccn1
-4.8	i	0.9	-9.4	C[C@@H](O)C#Cc1ccc2c(c1)O[C@H](CN(C)Cc1ccncc1)[C@@H](C)CN([C@@H](C)CO)S2(=O)=O
5.8	i	-1.0	4.6	CCS(=O)(=O)N1CCCCN2[C@H](CO)[C@H](c3ccc(C#CC(C)(C)O)cc3)[C@H]2C1
-2.1	i	4.5	-11.0	CC(=O)N(C)C[C@@H]1Oc2cc(-c3ccc(C)cc3)ccc2S(=O)(=O)N([C@H](C)CO)C[C@H]1C
-46.7	i	-15.1	-79.7	CCN=C1NC(c2ccc(F)cc2)C(C(=O)OC)=C(C)N1Cc1ccc(C(F)(F)F)cc1 (stereo not drawn)
-1.1	i	-0.4	-14.4	C[C@@H]1CN([C@H](C)CO)C(=O)c2cc(NS(=O)(=O)c3cn(C)cn3)ccc2O[C@@H]1CN(C)Cc1ccc(Cl)c(Cl)c1
15.9	i	2.9	9.9	O=C(NCc1ccccc1)[C@H]1CCCN1C(=O)[C@H]1CCCN1C(=O)c1cccc(Cl)c1
-8.2	+	3.3	-11.8	O=C(Nc1ccc(Cl)cc1)N[C@@H]1CC[C@@H](CCNS(=O)(=O)c2ccccc2F)O[C@H]1CO
0.5	i	-1.7	9.5	O=C(NCC1CC1)[C@@H]1[C@@H](CO)[C@@H]2Cn3c(ccc(-c4cccnc4)c3=O)[C@@H]2N1C(=O)NC1CCCC1
-2.7	i	1.9	2.8	COc1cccc(-c2cnc3c(c2)C(=O)N([C@H](C)CO)C[C@H](C)[C@H](CN(C)C(=O)Nc2ccc(F)cc2)O3)c1
0.4	i	-2.3	2.7	CO[C@@H]1CN(C)C(=O)c2cc(NC(=O)C3CC3)ccc2OC[C@@H](C)N(C(=O)c2cnccn2)C[C@H]1C
-3.1	i	1.4	-4.1	CCCN(C)C[C@H]1Oc2cc(-c3cccc(OC)c3)ccc2S(=O)(=O)N([C@H](C)CO)C[C@H]1C
1.0	i	1.9	8.3	O=S(=O)(NC[C@@H]1N[C@@H](CO)[C@H]1c1ccccc1)c1ccccc1
0.5	i	10.5	-3.1	C[C@@H]1CN([C@@H](C)CO)C(=O)Cc2cc(NC(=O)Cc3cn(C)c4ccccc34)ccc2O[C@@H]1CN(C)Cc1ccccc1
-5.5	i	-0.4	-13.4	C[C@@H]1CN([C@@H](C)CO)C(=O)c2cc(NC(=O)C3CC3)ccc2O[C@@H]1CN(C)S(=O)(=O)c1ccc(Cl)cc1

# Grouped by structure: those above with a CF3 group
Ecoli rRNA inh	FGF22 binding	Ecoli rRNA inh RFP	Ecoli rRNA inh OD600	Compound
-41.4	i	-13.6	-82.1	COC(=O)C1=C(C)N(Cc2cccc(C(F)(F)F)c2)C(=NCc2ccc(C(F)(F)F)cc2)NC1c1ccccc1 (stereo not drawn)
-46.7	i	-15.1	-79.7	CCN=C1NC(c2ccc(F)cc2)C(C(=O)OC)=C(C)N1Cc1ccc(C(F)(F)F)cc1 (stereo not drawn)

# The listing continues:
Ecoli rRNA inh	FGF22 binding	Ecoli rRNA inh RFP	Ecoli rRNA inh OD600	Compound
-0.1	i	-1.5	-8.3	C[C@@H]1CN([C@@H](C)CO)C(=O)c2cc(NC(=O)NC3CCCCC3)ccc2O[C@@H](C)CCCCO[C@@H]1CN(C)C(=O)CCC(F)(F)F
4.6	i	-3.4	28.2	Cc1ccc(S(=O)(=O)N(C)C[C@H]2Oc3cc(C#CC4CCCC4)ccc3S(=O)(=O)N([C@@H](C)CO)C[C@@H]2C)cc1
i	i	x	x	O=C(C[C@@H]1CC[C@H]2[C@@H](COC[C@H](O)CN2Cc2ccc(Oc3ccccc3)cc2)O1)N1CCN(c2ccccc2)CC1
6.5	i	-5.2	0.4	CN(C)C(=O)c1cccc(-c2ccc3c(c2)[C@@H]2[C@@H](CCN2C(=O)Cc2ccncc2)[C@@H](CO)N3)c1
-1.5	i	11.8	2.0	COc1ccc(CN(C)C[C@H]2OCCCC[C@@H](C)Oc3ccc(NS(=O)(=O)c4ccc(F)cc4)cc3C(=O)N([C@@H](C)CO)C[C@H]2C)cc1
-1.7	i	4.3	-7.3	O=C(NCC[C@@H]1CC[C@@H](NC(=O)c2cccnc2)[C@H](CO)O1)Nc1ccc(F)cc1
4.3	i	-0.3	3.5	CC(C)NC(=O)N(C)C[C@@H]1Oc2ccc(NC(=O)CCCCCC(=O)Nc3ccccc3N)cc2CC(=O)N([C@@H](C)CO)C[C@@H]1C
7.0	i	0.5	6.3	C[C@@H]1CN([C@@H](C)CO)C(=O)c2cc(NS(C)(=O)=O)ccc2O[C@@H]1CN(C)Cc1ccc(C(=O)Nc2ccccc2N)cc1
-5.1	i	-1.9	-10.1	C[C@H]1CN([C@@H](C)CO)C(=O)c2cc(-c3ccccc3F)cnc2O[C@@H]1CN(C)C(=O)C1CCC1
1.6	i	-2.7	5.7	CCNC(=O)C[C@@H]1CC[C@H]2[C@@H](COc3ccc(NC(=O)NC(C)C)cc3C(=O)N2C)O1

# Screening results: PubChem, Broad Institute

# The list is partial; count on the stated rates, not on these rows.
